Vaccinia Venus: qHTS for Stage-Specific Inhibitors of Vaccinia Orthopoxvirus: Venus Reporter Primary qHTS; Potency, µM (top dose mostly 36.5 µM), for inactives: at the top dose activity change, negative = inhibition, actives largely listed as inhibitors; Vaccinia virus Venus reporter expression, fluorescence; 330,000 tested, 0.46% active; active means well fitted inhibition curve with a large enough effect; inconclusive means small, poorly fitted or top-dose-only effect; inactive means no such curve, though single readings can be large or run the other way; tested in A549 cells; also: nearly all actives have a fitted effect of over 30% in size; inactives centre near -10
Vaccinia mCherry: qHTS for Stage-Specific Inhibitors of Vaccinia Orthopoxvirus: mCherry Reporter Primary qHTS; Vaccinia virus mCherry reporter infection, fluorescence; about a quarter of the inactives have no number; Potency, µM (titrated, usually from 36.5 µM), without a hit: top-dose activity change, negative = inhibition, hits mostly inhibitors; 310,000 tested, 0.63% active; AID 720579, 2013; active = well fitted inhibition curve with a large enough effect; inconclusive = small, poorly fitted or top-dose-only effect; inactive = no such curve, though single readings can be large or run the other way; tested in A549 cells; also: nearly all actives have a fitted effect of over 35% in size; inactives centre near -10
* = called active by the depositor; i = inactive; ? = inconclusive; . = not tested or not shown; [ ] = remark or other dose. % is scaled to controls: 0 for no effect and ±100 for the full control effect; potency is read from the fitted curve at half-maximal effect.

Each structure is followed by: Vaccinia Venus | Vaccinia mCherry
(1) C=CCOC(=O)C(C#N)c1nc2ccccc2nc1N1CCC(C(=O)OCC)CC1 (configuration not stated)
    -25% | -16%
(2) CCCCNC(=S)Nc1ccc2[nH]c(=O)[nH]c2c1
    4% | -14%
(3) COC(=O)c1ccc(NC(=O)CN(c2ccc(C)cc2)S(=O)(=O)c2c(C)n[nH]c2C)cc1
    3% | -10%
(4) CCCCCCn1nc(C(=O)N(CC(C)C)c2c(N)n(CCCC)c(=O)[nH]c2=O)c2ccccc2c1=O
    -27% | -23%
(5) O=C1NC[C@H](c2ccccc2)N(CCc2cccc3ccccc23)C1=O
    -16% | -14%
(6) CC1CN(C(=O)c2cc([N+](=O)[O-])cc([N+](=O)[O-])c2)CC(C)O1 (configuration not stated)
    -5% | -13%
(7) O=C(O)c1ccccc1SCc1cn2ccccc2n1
    -10% | -13%
(8) COC(=O)c1cc(CNC(=O)c2ccccc2)cc(NC(=O)c2ccccc2OC)c1
    -4% | -14%
(9) Cn1c(=O)[nH]c(=O)c2c1nc(N1CCCC1)n2CC(O)COc1ccccc1 (configuration not stated)
    -9% | -4%
(10) O=C(Cn1cnc2cc([N+](=O)[O-])ccc2c1=O)NCCc1ccc(F)cc1
    -15% | i
(11) O=C(N/N=C/c1ccc([N+](=O)[O-])o1)c1cccc(S(=O)(=O)N2CCOCC2)c1
    -5% | 0%
(12) Cc1ccccc1CSc1nnc(-c2ccccn2)n1C
    -11% | i
(13) O=C(COC(=O)C1(c2ccc(F)cc2)CCCC1)N1CCN(C(=O)c2ccco2)CC1
    -25% | .
(14) Cc1nn(CC(=O)NCc2ccccc2Br)c(=O)c2cc3occc3n12
    0% | -9%
(15) O=c1[nH][nH]c(=O)c2cc(N3CCCC3)ccc12
    -8% | -25%
(16) c1ccc(CCCNCC2COc3ccccc3O2)cc1 (configuration not stated)
    3% | -5%
(17) CC(C)CN(C(=O)COC(=O)CCCc1nc2ccccc2s1)c1c(N)n(Cc2ccccc2)c(=O)[nH]c1=O
    -29% | -15%
(18) CCN1C(=O)CC(N2CCC(Nc3ccc(OC)cc3)CC2)C1=O (configuration not stated)
    -26% | .
(19) Cc1ccc(C(=O)CNc2cccc([N+](=O)[O-])c2)cc1
    -5% | -19%
(20) CCN(CC)CCn1c2ccc(F)cc2c2nc(C)sc21
    -11% | 7%
(21) CCN(Cc1ccncc1)Cc1ccc2c(c1)CN(C(=O)c1ccc(OC)cc1)CCO2
    2% | -11%
(22) CCC(c1ccccc1)C(CC)c1cc(O)c(O)c(O)c1 (configuration not stated)
    -10% | -15%
(23) COc1cc(C(=O)Nc2nc3ccc4nc(C)sc4c3s2)cc(OC)c1OC
    -10% | -9%
(24) C#CCOCCOCCOCCNc1nc(N2CCN(C(=O)CCCCCCCCCCNC(=O)Cn3cc(CCCCCN)nn3)CC2)nc(N2CCN(C(=O)CCCCCCCCCCNC(=O)[C@@H](CCC(=O)O)n3cc(CCCCCN)nn3)CC2)n1
    ? | i
(25) Cc1sc(NC(=O)C2CCCCC2)c(C#N)c1-c1ccccc1
    -12% | -13%
(26) COC(=O)C(=O)C/C(=N/Nc1ncnc2ccccc12)c1ccc(Cl)cc1
    35%[activator] | 7%
(27) CCc1ccc(NC(=O)Cn2c(=O)n(-c3cccc(OC)c3)c(=O)c3c(C)c(C(=O)N(C)C)sc32)cc1
    -17% | -15%
(28) O=[N+]([O-])c1ccccc1S(=O)(=O)N1CCN(Cc2cc3c(cc2O)OCO3)CC1
    -29% | ?
(29) O=C(COC(=O)c1ccccc1F)Nc1cc(S(=O)(=O)N2CCOCC2)ccc1N1CCCC1
    1% | 3%
(30) O=C(Nc1ccccc1)C1CCN(S(=O)(=O)c2ccc3c(c2)OCCO3)CC1
    -2% | -14%
(31) C=C1C=C(C)n2ncc(C(=O)Nc3ccc(C)cn3)c2N1
    -16% | -21%
(32) NC(=O)c1ccc(NC(=O)COc2ccc([N+](=O)[O-])cc2Cl)cc1
    -6% | i
(33) COc1ccccc1C(=O)Nc1nnc(-c2ccc(Cl)cc2)o1
    -4% | ?
(34) COc1cc([N+](=O)[O-])ccc1NC(=O)NCc1ccco1
    -16% | -5%
(35) O=C(Cc1ccccc1F)NC1CCSc2ccccc21 (configuration not stated)
    -14% | i
(36) COC(=O)c1cccc(NC(=O)NC2CCCN2S(=O)(=O)c2ccc(Cl)cc2)c1 (configuration not stated)
    -20% | i
(37) COc1ccc(/C=N\NC(=O)CCc2c(C)n[nH]c2C)c(OC)c1OC
    -16% | i
(38) CC(C)Cc1cc(C(=O)Nc2sc3c(c2C#N)CCC3)no1
    -6% | i
(39) COC(=O)C1=C(O)/C(=C/c2ccc(OCC(=O)Nc3ccc(OC)cc3)cc2)N=C1C
    -8% | i
(40) Cc1nc(-c2ccc(S(=O)(=O)N3CCN(C(c4ccccc4)c4ccccc4)CC3)s2)cs1
    -12% | -8%
(41) Cc1cccc(S(=O)(=O)NC(=O)C2(C)CCN2C(=O)C2(c3ccc(Cl)cc3)CCC2)c1 (configuration not stated)
    -5% | i
(42) CC(C)(C)N(NS(=O)(=O)c1ccc(F)cc1)c1ccccc1
    -17% | -1%
(43) Cc1ccc(/C=N/NC(=O)c2cccc(S(=O)(=O)N3CCOCC3)c2)o1
    -15% | -14%
(44) CCCCc1ccc(NC(=O)COc2cccc3c(=O)n(C)ccc23)cc1
    ? | ?
(45) O=C1c2ccccc2C(=O)N1c1ncn[nH]1
    -8% | -10%
(46) CC(C)c1nccn1CCC(=O)O
    -6% | -14%
(47) Cc1ccc(CN(C(=O)c2ccccc2F)c2ccccn2)o1
    15% | 0%
(48) COc1ccc(OC)c(NC(=O)C2CC(=O)N(c3ccccc3)C2)c1 (configuration not stated)
    -13% | .
(49) Cc1cc(Nc2cccc(Cl)n2)n(-c2ccccc2)n1
    -17% | i
(50) O=C(NCc1ccccc1)C(c1ccccc1)N(C(=O)c1csnn1)C1CCCC1 (configuration not stated)
    -8% | -3%
(51) CSc1ccc(S(=O)(=O)NCC(=O)OCC(=O)N(C)Cc2ccccc2)cc1[N+](=O)[O-]
    0% | i
(52) COC(=O)CCCn1cc(CN2CC(N3CCCCC3)CS2(=O)=O)nn1 (configuration not stated)
    6% | 34%[activator]
(53) Nc1ccccc1SCc1csc(-c2ccc(Cl)cc2)n1
    -25% | -11%
(54) COc1cc2c3c(c1)C1(C(=O)N3C(C)(C)C=C2C)C(C#N)=C(N)Oc2cc(C)oc(=O)c21 (configuration not stated)
    -25% | .
(55) COCCN1CCN(C(=O)c2cnn(-c3nccc(-c4ccccc4OC)n3)c2-c2ccco2)CC1
    20% | -13%
(56) CCOc1ccccc1CNC(=O)CCCn1nc(C)c2sc3ccccc3c2c1=O
    -6% | -15%
(57) Cc1cccc(Oc2ccc3c(c2)Oc2ccccc2NC3=O)c1
    4% | -6%
(58) CC1(C)CC(NC(=O)c2ccccc2Cl)CC(C)(C)N1
    -20% | -28%
(59) CCOC(=O)c1nn(-c2ccccc2F)c(C)c1C(C)=O
    -20% | .
(60) COc1ccc(-c2cc(-c3cccs3)nc(OC)c2C#N)cc1OC
    -9% | -17%

(list continues)
Each structure is followed by: Vaccinia Venus | Vaccinia mCherry
(61) CCCOc1ccc(N2C(=O)CC(NCc3cccnc3)C2=O)cc1 (configuration not stated)
    -14% | -11%
(62) COc1ccc(C(=O)NC2CCN(CC(=O)NC3CCCCC3)CC2)cc1
    -14% | -1%
(63) Cc1cccc(-n2ncc3c2CCCC3NC(=O)CCN2CCCCO2)c1C (configuration not stated)
    -19% | -9%
(64) C[C@H](CO)N1C[C@H](C)[C@@H](CN(C)Cc2ccc(-c3ccccc3)cc2)Oc2c(NS(=O)(=O)c3cn(C)cn3)cccc2C1=O
    -2% | i
(65) CCN1CCN(C(=O)c2c(-c3c(Cl)cccc3Cl)noc2C)CC1
    ? | -2%
(66) CSc1ccccc1C(=O)NCC1Cc2cccc(-c3ncccc3C)c2O1 (configuration not stated)
    -16% | i
(67) COc1cc(C)ccc1OCCSc1nc2ccc(NC(=O)c3ccc(F)cc3)cc2s1
    -4% | i
(68) C/C(=N\NC(=S)NCCc1ccccc1)c1cccs1
    0% | -12%
(69) CN(C)c1ccc2cc(S(=O)(=O)O)cc(O)c2c1
    8% | ?
(70) COc1ccc(C(=O)Cc2ccc(F)cc2)c(OC)c1
    -20% | -2%
(71) Cc1cccc(NC(=S)N(CCN2CCOCC2)Cc2cc3cc4c(cc3[nH]c2=O)OCO4)c1
    -6% | -14%
(72) Cc1ccc(NC(=O)CSc2nc3ccc(NC(=O)c4cccs4)cc3s2)cc1
    -7% | -15%
(73) CC1(OC(=O)CCc2ccccc2)C(=O)C=C2C=C(c3ccc(C#N)cc3)N(CC3CC3)C=C2C1=O (configuration not stated)
    -8% | 0%
(74) C=C(C)C(=O)Nc1cccc(C2=NOC3(C2)C[C@H](C(N)=O)N(C(=O)CC#N)C3)c1 (some centres not stated)
    -14% | i
(75) O=C(NCc1ccccc1)C1CCCN(S(=O)(=O)c2ccc(-n3cnnn3)cc2)C1 (configuration not stated)
    0% | i
(76) O=C(Oc1ccc2ccc(OC(=O)N3CCCCCC3)cc2c1)N1CCCCCC1
    -6% | 0%
(77) CCOCCCNC(=O)c1c(N)n(-c2ccc(S(N)(=O)=O)cc2)c2nc3ccccc3nc12
    -14% | .
(78) CN(Cc1nc(CCc2ccccc2)no1)Cc1cccs1
    -11% | -2%
(79) Nc1nc(COc2ccc(Cl)cc2)cs1
    -22% | -45%
(80) O=C(NCC1CC1)NC(=O)c1c(F)cccc1Cl
    -11% | i
(81) Cc1ccc2nc(N/C(N)=N/S(=O)(=O)c3ccc([N+](=O)[O-])cc3)nc(C)c2c1
    -28% | -10%
(82) COCCCN(C(=O)C(C)Oc1ccc(Br)cc1)c1c(N)n(Cc2ccccc2)c(=O)[nH]c1=O (configuration not stated)
    -11% | 0%
(83) O=C(CSc1c[nH]c2ccccc12)N1CCOCC1
    -9% | i
(84) CC(C)(C)OC(=O)N1CCC(c2c(C(=O)N3CCc4ccccc4C3)cnn2-c2ccc(Cl)cc2)CC1
    -17% | -17%
(85) COc1ccc(C2(N3CCN(c4cccc(C)c4C)CC3)C(=O)c3ccccc3C2=O)cc1
    0% | -7%
(86) CCc1ccc(/C=C2\SC(N3CCCC3)=NC2=O)cc1
    -14% | i
(87) O=C(NCc1ccccn1)Nc1cccc([N+](=O)[O-])c1
    2% | -12%
(88) O=C(O)CN1C(=O)/C(=C\c2ccccc2OCc2ccc(Cl)cc2)SC1=S
    -11% | i
(89) CC(CN1CCOCC1)OC(=O)COc1ccc(F)cc1 (configuration not stated)
    -4% | -12%
(90) CCn1c(CSCc2ccc(F)cc2)nnc1SCC(=O)N1CCN(c2ccccc2)CC1
    ? | .
(91) COc1ccc(N(C(=O)CNC(=O)c2cccs2)C(C(=O)NC2CCCC2)c2cccnc2)cc1 (configuration not stated)
    3% | -3%
(92) CC(C)CC(C(=O)NC(C)(C)C)N(CC1CCCO1)C(=O)c1snc(C(N)=O)c1N (configuration not stated)
    -16% | -9%
(93) O=C(NC(c1ccccc1)c1cnccn1)C1CCN(CCOc2ccc(Cl)cc2Cl)CC1 (configuration not stated)
    -17% | 15%
(94) N#C/C(C(=O)NCc1ccccc1)=C1\SC(CCO)C(=O)N1c1ccccc1 (configuration not stated)
    -12% | -22%
(95) CCOc1ccc2nc(NC(=O)c3ccco3)sc2c1
    -13% | -2%
(96) CCOc1ccccc1NC(=O)c1c(NC(=O)COc2ccccc2)sc2c1CCCC2
    -5% | -7%
(97) CCOc1ccc(N(C(=O)c2snc(C(N)=O)c2N)C(C(=O)NCC2CCCO2)c2ccc(C)o2)cc1 (configuration not stated)
    -4% | -8%
(98) CCOC(=O)[C@]12Cc3cc(OC)ccc3[C@H]1N(C(C)C)C(=O)c1ccccc12
    ? | ?
(99) CS(=O)(=O)N(CC(=O)NCc1ccco1)c1cccc([N+](=O)[O-])c1
    -4% | -28%

Among those listed so far, 11 have a nitro group on carbon.
Each structure is followed by: Vaccinia Venus | Vaccinia mCherry
(6) CC1CN(C(=O)c2cc([N+](=O)[O-])cc([N+](=O)[O-])c2)CC(C)O1 (configuration not stated)
    -5% | -13%
(10) O=C(Cn1cnc2cc([N+](=O)[O-])ccc2c1=O)NCCc1ccc(F)cc1
    -15% | i
(11) O=C(N/N=C/c1ccc([N+](=O)[O-])o1)c1cccc(S(=O)(=O)N2CCOCC2)c1
    -5% | 0%
(19) Cc1ccc(C(=O)CNc2cccc([N+](=O)[O-])c2)cc1
    -5% | -19%
(28) O=[N+]([O-])c1ccccc1S(=O)(=O)N1CCN(Cc2cc3c(cc2O)OCO3)CC1
    -29% | ?
(32) NC(=O)c1ccc(NC(=O)COc2ccc([N+](=O)[O-])cc2Cl)cc1
    -6% | i
(34) COc1cc([N+](=O)[O-])ccc1NC(=O)NCc1ccco1
    -16% | -5%
(51) CSc1ccc(S(=O)(=O)NCC(=O)OCC(=O)N(C)Cc2ccccc2)cc1[N+](=O)[O-]
    0% | i
(81) Cc1ccc2nc(N/C(N)=N/S(=O)(=O)c3ccc([N+](=O)[O-])cc3)nc(C)c2c1
    -28% | -10%
(87) O=C(NCc1ccccn1)Nc1cccc([N+](=O)[O-])c1
    2% | -12%
(99) CS(=O)(=O)N(CC(=O)NCc1ccco1)c1cccc([N+](=O)[O-])c1
    -4% | -28%

Of the compounds above, these have bromine:
Each structure is followed by: Vaccinia Venus | Vaccinia mCherry
(14) Cc1nn(CC(=O)NCc2ccccc2Br)c(=O)c2cc3occc3n12
    0% | -9%
(82) COCCCN(C(=O)C(C)Oc1ccc(Br)cc1)c1c(N)n(Cc2ccccc2)c(=O)[nH]c1=O (configuration not stated)
    -11% | 0%

Random draw from the library. Share with any hit: about 0.86%.
